CtBP-E1A inh – inhibitors of CtBP/E1A interaction | AlphaScreen GST-E1A/His-CtBP binding, 1536-well; stronger effect = lower value; control for the full effect not named in the record | activity change, % (concentration not given with the values) | 0.49% of 340,000 active; in the data active means activity change below about -65%; inconclusive means about -30% to -65%; inactive means above about -30%; also: % is scaled to controls: 0 for no effect and ±100 for the full control effect
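Steps: dispense buffer (Tris pH 8.0, NaCl 300 mM, TCEP 1 mM, BSA, Tween 20); add 5X protein mix (GST-E1A, His-CtBP, 125 nM each); pin 23 nL compound; 2 h at 37 °C, dark; add 5X beads (50 ug/mL); 1 h; read.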
TRPML1 ag – agonists of human TRPML1 channel; Q9GZU1; TRPML1-expressing cells, Ca2+ dye fluorescence, FDSS; host cell line not named in the record; reference of the full effect not given here; activation, % (test concentration not listed); 0.12% of 410,000 active; AID 624414; in the data active = activation above about 50%; inconclusive = about 30% to 50%; inactive = below about 30%; also: 0% is about no effect; the text of the record puts the active cut at 80%
Target sequence (Q9GZU1 whole entry, looked up): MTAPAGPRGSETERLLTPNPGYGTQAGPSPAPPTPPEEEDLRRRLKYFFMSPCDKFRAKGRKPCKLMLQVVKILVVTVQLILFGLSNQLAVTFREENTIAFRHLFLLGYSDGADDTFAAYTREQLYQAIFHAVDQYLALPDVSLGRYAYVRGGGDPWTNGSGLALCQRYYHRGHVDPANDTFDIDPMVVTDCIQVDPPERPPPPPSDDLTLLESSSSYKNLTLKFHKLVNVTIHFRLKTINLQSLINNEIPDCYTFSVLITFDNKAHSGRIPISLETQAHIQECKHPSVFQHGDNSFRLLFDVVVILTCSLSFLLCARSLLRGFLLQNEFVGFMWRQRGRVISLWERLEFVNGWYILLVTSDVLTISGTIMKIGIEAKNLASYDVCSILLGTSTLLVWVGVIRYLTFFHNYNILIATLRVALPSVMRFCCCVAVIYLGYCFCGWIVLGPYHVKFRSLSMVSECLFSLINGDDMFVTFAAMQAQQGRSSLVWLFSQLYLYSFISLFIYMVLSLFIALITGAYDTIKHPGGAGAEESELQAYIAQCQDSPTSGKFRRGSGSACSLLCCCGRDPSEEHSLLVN
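TRPML1-DL cells, Tet-induced overnight (~16 h, 37 degrees C), loaded 45-90 min at room temperature with Ca8 no-wash calcium dye plus quencher. FDSS fluorescence: 10 s baseline, compound pin-transfer, 110 s agonist read, then EC80 54-4 (4uM final) and 110 s antagonist read.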
D2 potentiator – human D2 receptor positive allosteric modulation | P14416 | DiscoveRx D2 beta-arrestin cells, luminescence, 90 min; 100% = 57 uM dopamine signal | potentiation, % (concentration not given with the values) | 0.23% of 360,000 active | AID 624464; active = potentiation of 50% or more; inconclusive = 30% to 50%; inactive = 30% or less;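 also: compound concentration not given in the record; tested on top of an EC20 dose of dopamine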
Target sequence (P14416 whole entry, looked up): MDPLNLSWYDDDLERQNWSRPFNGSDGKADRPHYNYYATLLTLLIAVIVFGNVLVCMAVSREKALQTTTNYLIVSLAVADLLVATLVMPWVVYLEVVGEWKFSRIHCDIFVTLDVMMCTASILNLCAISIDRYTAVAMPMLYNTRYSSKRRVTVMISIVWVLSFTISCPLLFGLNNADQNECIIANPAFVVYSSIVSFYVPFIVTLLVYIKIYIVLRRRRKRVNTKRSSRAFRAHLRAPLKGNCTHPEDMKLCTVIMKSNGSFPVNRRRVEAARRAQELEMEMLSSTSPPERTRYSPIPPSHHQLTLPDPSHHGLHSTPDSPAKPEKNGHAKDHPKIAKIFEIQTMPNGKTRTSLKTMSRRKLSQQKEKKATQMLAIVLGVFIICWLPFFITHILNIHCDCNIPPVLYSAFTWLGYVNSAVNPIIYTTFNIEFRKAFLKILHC
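PathHunter D2 cells, attached overnight at 37 deg C, received compound in DMSO plus dopamine at EC20 (50 nM final) for 90 min at 37 deg C. Beta-arrestin recruitment was read as luminescence after 1 h with detection reagent at ambient temperature.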
D2 ag – activates the human D2 dopamine receptor. P14416. DiscoveRx PathHunter D2 beta-arrestin, luminescence, 90 min; 100% = 57 uM dopamine signal. activation, % (test concentration not listed). 0.084% of 360,000 active. AID 624465; in the data active = activation above about 40%; inconclusive = about 15% to 40%; inactive = below about 15%; also: compound concentration not given in the record; the text of the record calls up to 30% inactive
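Agonist mode: compounds alone added to overnight-plated D2 PathHunter cells for 90 min at 37 C, with 57 uM final dopamine (EC100) defining full response. Beta-arrestin recruitment detected by chemiluminescent reagent, read after 1 h at ambient temperature.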
Six1-Eya2 blk – blocks human Six1 binding to Eya2 | AID 651725 | AlphaScreen GST-Six1/His-Eya2 binding, biochemical; stronger effect = lower value; control for the full effect not named in the record | Q15475+O00167 | activity change, % (no concentration beside the values) | 0.56% of 360,000 active; in the data active = activity change below about -65%; inconclusive = about -30% to -65%; inactive = above about -30%; also: % is scaled to controls: 0 for no effect and ±100 for the full control effect; compound concentration not given in the record
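AlphaScreen with GST-Six1 and His-Eya2 (5X mix: 250 nM and 500 nM), glutathione donor and nickel acceptor beads; buffer 50 mM Tris pH 8.0, 300 mM NaCl, 1 mM TCEP; 1 h at 37 C in the dark.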
PINK1 modulator – modulators of PINK1 expression; PINK1 immunofluorescence, high-content cytometry, 24 h; Potency, µM (highest dose often 76.6 µM), for inactives: at the highest dose activation (PINK1 increase), actives largely listed as activators; 0.2% of 410,000 active; AID 624263; active = well fitted activation curve with a large enough effect; inconclusive = small, poorly fitted or top-dose-only effect; inactive = flat fitted curve, though single readings scatter; cell line not stated here;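 also: potency is read from the fitted curve at half-maximal effect; % of control where 0% means no effect; nearly all actives have a fitted effect of over 65% in size; a mitochondrial uncoupler was the plate control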
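A stable cell line was treated with compounds at 5 concentrations for 24 hours, with CCCP as control. PINK1 levels and mitochondrial localization were measured by immunofluorescence with mitochondrial, cell and nuclear markers after fixation, read by laser-scanning cytometry.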
* = called active by the depositor; u = inconclusive; x = not tested or not shown; & = joins results of further samples; [ ] = dose if it differs, or a comment. No enrichment for hits. Share with any hit: about 1.3%.

SMILES | CtBP-E1A inh | TRPML1 ag | D2 potentiator | D2 ag | Six1-Eya2 blk | PINK1 modulator
COc1cc(C(=O)COC(=O)c2ccco2)cc(OC)c1OC | -0.7 | -0.6 | -18.7 | -1.9 | 1.7 | 0.3%
CCOC(=O)/C(=C\c1ccc(C)cc1)NC(=O)c1ccccc1 | -14.3 | -0.9 | -1.0 | 4.9 | -2.1 | 1.8%
CC(=O)Nc1ccc2c(c1)Cc1cc(N3C(=O)C=CC3=O)ccc1-2 | -18.0 | 13.3 | -25.8 | -5.9 | 5.9 | 5.7%
Cn1cncc1C#Cc1c(C=O)n(C)c2ccccc12 | 2.1 | -0.3 | -12.1 | -3.7 | 3.5 | 3.0%
CN(C)c1ccc(O)c2c1CC1CC3[C@@H](N(C)C)C(=O)C(C(N)=O)C(=O)[C@]3(O)C(=O)C1C2=O (stereo partly drawn) | u | -0.6 | 60.9* | u | u | 1.3%
COC(=O)c1nn(-c2ccc(OC)cc2)c(=O)cc1Sc1ccc(C)cc1 | -0.6 | -0.2 | 3.7 | 1.3 | -3.6 | 3.0%
Cc1cccnc1NC(=O)c1ccc(Br)o1 | 27.3 | -0.7 | -13.0 | 1.5 | 2.6 | -1.7%
COC(=O)Cn1c(CCS(=O)(=O)c2ccc(C)cc2)nc2ccccc21 | 1.3 | -0.4&-0.5 | -12.2 | -1.6 | 0.2 | 5.9%[38.3 µM]
CCc1c(C)nc2c(Br)cccc2c1SCCC#N | 19.4 | 0.3 | -0.8 | 2.6 | 3.6 | -0.5%
CC1(C)Cc2nc3sc4c(SCC(=O)NCc5ccccc5)ncnc4c3cc2CO1 | -1.4 | 0.2 | -6.3 | -1.2 | 2.7 | x
O=C(COc1cccc(C(F)(F)F)c1)NNC(=O)Cn1c(=O)cnc2ccccc21 | 15.5 | -0.1 | -22.7 | 0.1 | -0.4 | 1.9%
Cc1nc2ccccn2c1-c1ccnc(=S)[nH]1 | -20.7 | -0.3 | -18.1 | -9.1 | -22.3 | 0.2%
O=C1CN(C(=O)c2ccc(F)cc2)c2ccccc2N1 | x | -0.8 | 5.7 | 1.1 | -4.4 | -0.4%
O=C(Cn1cc([N+](=O)[O-])cn1)N1CCN(Cc2ccc3c(c2)OCO3)CC1 | 0.1 | 0.5 | -6.0 | -4.4 | 2.1 | 1.2%
O=S(=O)(c1ccccc1)c1nc(-c2ccco2)oc1NCCN1CCOCC1 | -4.0 | 2.7 | -18.7 | -1.3 | -1.6 | 4.7%[38.3 µM]
CCc1ccc(C(CC(=O)O)N2Cc3ccccc3C2=O)cc1 (stereo not drawn) | 1.8 | -0.5 | -7.0 | -0.1 | 1.3 | 2.3%
CC1(C)CC(NCc2ccccc2)CCO1 (stereo not drawn) | -18.1 | 0.9 | -7.8 | -3.2 | 21.0 | -0.3%
CCOc1ccc(C(CCc2ccccc2)NC(=O)c2ccc(OC)c(OC)c2)cc1OCC (stereo not drawn) | 0.1 | 3.9 | -12.7 | 1.2 | -5.6 | u
O=C(NNC(=O)c1nn(-c2ccc(F)cc2)ccc1=O)c1ccc(C(F)(F)F)cc1 | 6.9 | -0.7 | -8.6 | -2.4 | -7.5 | 2.5%
Cc1cccc(S(=O)(=O)Nc2ccc(S(=O)(=O)Nc3nccs3)cc2)c1 | x | -0.8 | -10.4 | -2.1 | -12.6 | 0.8%
CCCCSc1nc2sc3c(c2c(=O)[nH]1)CCC3 | 7.6 | 1.7 | 0.8 | -3.0 | 2.9 | u
CCN(CC)CCNC(=O)c1ccc(NC(=O)COc2ccc3c(c2)CCC3)cc1 | -9.1 | 0.4 | -4.8 | -7.5 | 8.2 | 1.6%
CSc1ccc(C(=O)/C=C/c2ccc(N)cc2)cc1 | 10.8 | -0.7 | -4.3 | -1.0 | 6.6 | -1.3%
CNc1oc(-c2cccs2)nc1C#N | -0.1 | -1.8 | 9.3 | 0.0 | -10.4 | 1.0%
O=C(COc1cccnc1[N+](=O)[O-])Nc1ccc2c(c1)OC(F)(F)O2 | 11.9 | 0.0 | -21.1 | -2.7 | 7.9 | -2.1%
CCC1NC(=O)c2cc3ccccc3cc2-n2c1nc1ccc(OC)cc1c2=O (stereo not drawn) | 1.7 | 1.8 | 4.5 | -3.0 | 0.9 | 7.2%
CC1=C(C(=O)N2CCCC(N3CCN(c4ccccc4F)CC3)C2)OCCO1 (stereo not drawn) | -5.5 | -0.5 | -21.3 | -2.9 | 2.9 | -1.0%
COc1ccc(CNC(=O)c2ccc(C(C)(C)C)cc2)cc1 | -4.1 | -1.3 | 3.9 | -1.3 | 6.2 | 7.9%
Cn1c(=O)c2c(ncn2CC(=O)OCC(=O)Nc2cc(Cl)ccc2Cl)n(C)c1=O | 5.5 | 0.2 | -8.5 | -3.2 | -2.0 | 8.6%
O=S(=O)(NCCc1csc(-c2cccnc2)n1)c1cc(F)ccc1F | 3.9 | 1.5 | -5.6 | 1.9 | 23.6 | 0.2%
CCOc1ccc(NC(=O)c2ccc3c(=O)n4c(nc3c2)CCCCC4)cc1 | -1.1 | -0.8&0.1 | -4.8 | -2.2 | 1.9 | -0.1%&1.5%
COc1ccc(C(=O)NCC(=O)c2ccccc2)cc1 | x | -0.1 | -1.9 | 8.2 | 7.3 | -0.7%
CCOc1ccccc1NC(=S)C(=C([O-])c1ccc2c(c1)OCCO2)[n+]1ccc(CC)cc1 | -5.0 | 0.5 | -20.1 | -7.1 | -0.2 | 0.7%
CN1CCc2ccccc2C1C1CCNCC1 (stereo not drawn) | 7.4 | -0.6 | -7.5 | -2.7 | 5.2 | -2.2%[38.3 µM]
Cn1cnnc1SCC(=O)c1cc2ccccc2o1 | x | 0.2 | -2.6 | 1.0 | -10.3 | -0.1%
O=C(O)CCC(=O)N1CCc2cc(S(=O)(=O)N3CCCCC3)ccc21 | 0.7 | 0.1 | -6.5 | -1.4 | -1.0 | 7.9%[38.3 µM]
CN(CC(=O)Nc1ccc(F)cc1)C(=O)c1cccc(S(=O)(=O)N2CCN(c3ccc(F)cc3)CC2)c1 | -2.0 | -0.2 | -11.6 | 8.4 | -9.9 | 0.6%
Cc1cccc(NC(=O)c2ccoc2C)n1 | -3.0 | 0.0 | -3.9 | -0.2 | 9.7 | -1.8%
CC(NC(=O)Nc1ccccn1)N1C(=O)C2C3C=CC(C3)C2C1=O (stereo not drawn) | -5.0 | 1.3 | 3.2 | -0.2 | 5.4 | 20.0%
Cc1cc(-c2ccc(F)cc2)nc2cc(C(N)=O)nn12 | u | 0.6 | -15.2 | -7.4 | u | -1.8%
COc1ccccc1CNCc1ccc(OC)c2ccccc12 | -0.2 | 1.2 | -26.4 | -2.4 | -9.3 | 7.0%
COc1ccc(CSc2nnnn2-c2ccc(C(N)=O)cc2)cc1[N+](=O)[O-] | x | 1.3 | -5.5 | -2.0 | 5.2 | -0.5%
O=C(CS(=O)(=O)c1ccc(F)cc1)N1CCOCC1 | 2.9 | 1.4 | -6.6 | -2.2 | -2.1 | 0.0%
C/C(=N\NC(=O)c1nnn(-c2nonc2N)c1-c1cccs1)c1ccncc1 | x | 1.3 | -5.1 | -0.7 | 5.8 | 2.0%
Cc1cc(NC(=O)C(C)C)n(-c2nc3ccccc3s2)n1 | x | 1.5 | 6.8 | 1.6 | 6.9 | 3.3%
CCN(CC)S(=O)(=O)c1cc(NC(=O)CNc2cccc(S(=O)(=O)N3CCCC3)c2)ccc1C | -7.9 | 0.5 | 4.8 | 9.8 | -5.6 | 2.6%
CN(C)CCN(Cc1ccccc1)C(c1cc2ccccc2o1)c1nnnn1C(C)(C)C (stereo not drawn) | 5.8 | 0.0 | x | x | -10.0 | -0.9%
O=C(NCCc1nc2ccccc2[nH]1)c1ccco1 | 10.2 | -0.8 | -6.8 | -2.6 | 3.4 | 3.3%
CCCCC(=O)N(CCC)CCC | 1.6 | 0.1 | -2.2 | 0.5 | -3.9 | 1.0%
CCOc1ccc2[nH]cc(S(=O)(=O)c3ccc(Cl)cc3)c(=O)c2c1 | x | 1.1 | -44.0 | -10.0 | -1.6 | -0.1%
Cc1ccc(C(=O)C[n+]2cc(-c3ccccc3)n3c2CCCCC3)cc1 | -4.3 | 1.0&2.9 | -10.2&-21.9 | -3.1&-3.4 | -5.0&-0.9 | 0.3%
CCn1c(SCC(=O)Nc2sc3c(c2C#N)CCCC3)nnc1-c1ccncc1 | 24.8 | 5.8 | -24.8 | -2.6 | 4.8 | -1.5%
CCOC(=O)c1cc2cc(OCc3ccccc3)ccc2nc1C | 6.4 | x | 5.0 | -2.2 | 22.5 | 1.6%
CNC(=O)NC(=O)CSc1nc(-c2cccs2)c(C#N)c(=O)[nH]1 | -5.5 | 0.3 | -5.7 | -2.9 | 15.0 | 0.3%
Cc1cc(C)cc(OCC(=O)Nc2cccc(C(=O)O)c2)c1 | -0.6 | -0.3 | -7.1 | 1.7 | -0.8 | 2.2%[38.3 µM]
CCOc1ccc2nc(S(=O)(=O)NC(=O)C3(C)CCN3C(=O)c3cc(C)n(C)n3)sc2c1 (stereo not drawn) | 0.6 | -0.6 | -1.0 | -1.4 | -3.9 | 0.2%
Cc1ccc(-c2nnn(CC(=O)N(Cc3ccco3)C(C(=O)NC(C)(C)C)c3ccncc3)n2)o1 (stereo not drawn) | -2.1 | 0.8 | 0.3 | -1.3 | -2.2 | 3.0%
CCN(CC(=O)Nc1ccccc1OC)C(=O)C1CCC1 | -0.4 | 1.7 | -67.7 | -1.9 | 6.3 | 0.3%
CCN(CC)S(=O)(=O)c1cccc(C(=O)Nc2cc(C)nn2-c2ccccc2)c1 | 9.1 | -0.8 | -10.9 | -6.3 | 6.4 | 0.7%
c1ccc(CCN2CN=C(Nc3nc4ccccc4s3)NC2)cc1 | x | -1.3 | -24.9 | -1.7 | -1.2 | 4.5%

7 of the compounds above, tab-delimited.
SMILES	CtBP-E1A inh	TRPML1 ag	D2 potentiator	D2 ag	Six1-Eya2 blk	PINK1 modulator
CCCCC(=O)N(CCC)CCC	1.6	0.1	-2.2	0.5	-3.9	1.0%
CCOc1ccc2[nH]cc(S(=O)(=O)c3ccc(Cl)cc3)c(=O)c2c1	x	1.1	-44.0	-10.0	-1.6	-0.1%
Cc1ccc(C(=O)C[n+]2cc(-c3ccccc3)n3c2CCCCC3)cc1	-4.3	1.0&2.9	-10.2&-21.9	-3.1&-3.4	-5.0&-0.9	0.3%
CCn1c(SCC(=O)Nc2sc3c(c2C#N)CCCC3)nnc1-c1ccncc1	24.8	5.8	-24.8	-2.6	4.8	-1.5%
CCOC(=O)c1cc2cc(OCc3ccccc3)ccc2nc1C	6.4	x	5.0	-2.2	22.5	1.6%
CNC(=O)NC(=O)CSc1nc(-c2cccs2)c(C#N)c(=O)[nH]1	-5.5	0.3	-5.7	-2.9	15.0	0.3%
Cc1cc(C)cc(OCC(=O)Nc2cccc(C(=O)O)c2)c1	-0.6	-0.3	-7.1	1.7	-0.8	2.2%[38.3 µM]
